High-throughput results: PubChem, several laboratories
Beta apoptosis: blocks beta cell apoptosis; INS-1E cytokine-induced death, ATP luminescence, 48 h; percent of positive-control rescue, neutral wells zero; protection from apoptosis, % (concentration not given with the values); 300,000 tested, 0.8% active;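 active = all replicates at 75% or more, or half of them and the mean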;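 note: 0% = cytokine-treated negative control wells and 100% = positive control rescue; higher means more ATP so stronger rescue from cytokine killing; wells of about 40 µL received 100 nL stock; the first replicate is given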
Calb FLC: C. albicans growth modulation with fluconazole; C. albicans CaCi-2 (fluconazole-resistant clinical isolate) + fluconazole, Alamar Blue growth, 48 h; growth inhibition, % (concentration not given with the values); 300,000 tested, 0.57% active; AID 1979;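 active = most replicates above 75%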;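 note: all wells also contain fluconazole at 8 µg/ml as a sub-toxic cotreatment; 0% = median of DMSO wells and 100% = median of geldanamycin control wells; wells of about 8 µL received 7.5 nL stock; the first replicate is given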
A1 inh: inhibitors of the anti-apoptotic protein A1, read as caspase activation; caspase activation, % (test concentration not listed); MEF A1-2A-BIM cells, Caspase-Glo 3/7 luminescence, 3 h; percent of clofoctol response, vehicle zero; 330,000 tested, 0.066% active;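 active = over half of replicate activation scores above 10%, or exactly half above 10 with the replicate mean above 10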;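 note: wells of about 30 µL received 50 nL stock; many hits fall short of the cut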
ALR inh: inhibitors of human sulfhydryl oxidase ALR; purified ALR, DTT oxidation, H2O2 HRP-luminol luminescence; inhibition, % (no concentration beside the values); 290,000 tested, 3.8% active;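 active = mean and each replicate at 75% or more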;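 note: stock transfer was 7.5 nL into about 7.5 µL; 0% = neutral wells and 100% = wells with inactivated enzyme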
Target sequence (P55789 whole entry, looked up): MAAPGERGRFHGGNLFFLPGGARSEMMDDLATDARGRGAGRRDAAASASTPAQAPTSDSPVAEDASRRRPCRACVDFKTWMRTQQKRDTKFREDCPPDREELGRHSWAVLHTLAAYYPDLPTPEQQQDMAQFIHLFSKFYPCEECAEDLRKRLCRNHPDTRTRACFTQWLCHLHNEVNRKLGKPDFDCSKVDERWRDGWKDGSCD
T cruzi inh: T. cruzi replication inhibition; T. cruzi beta-gal in NIH3T3, luminescence, 90 h; inhibition, % (no concentration beside the values); 300,000 tested, 1.4% active; AID 1885;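 active = mean inhibition across valid replicates above about 55%, limit read from the data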;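 note: signal also drops with host cell toxicity which is not excluded here; 0% = plate median of DMSO wells and 100% = zero luminescence signal; higher percent means less beta-gal luminescence so fewer parasites; stock transfer was 50 nL into about 50 µL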
Ecoli rRNA inh: selective bacterial rRNA inhibition in E. coli | AID 720706 | GFP signal change (wild-type ribosome), % (no concentration beside the values) | 350,000 tested, 1.6% active | E. coli WT GFP vs humanized-ribosome RFP mutants, fluorescence, 24 h; active compounds read low; DMSO median 0, no signal -100;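 active = significant combined selectivity score with lowered wild-type GFP, culture density cut under 30%, mutant RFP and density less affected; inactive = any of these conditions unmet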; note: one replicate is shown; some compounds called inactive have numbers as strong as hits
LANA-H2B inh: blocks KSHV LANA binding to histone H2A/H2B; Q9QR71; cell-free LANA-H2A/H2B peptide, fluorescence polarization; inhibition, % (test concentration not listed); 320,000 tested, 0.6% active; AID 2629; in the data active = inhibition mostly above about 10%, no sharp cut-off; inactive = mostly below about 6.7%;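 note: stock transfer was 7.5 nL into about 10 µL; 0% = median of vehicle wells and 100% = median of positive control wells; one replicate is shown; the record names a cut of 25% in any replicate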
Beta2AR agonist: human beta-2 adrenergic receptor agonism by FAP. P07550. Am2.2-beta2AR cells, FAP receptor internalization, flow cytometry; reference of the scale not given here. 340,000 tested, 0.43% active. response, % (no concentration beside the values);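 active = response above a set limit, near 3 SD of response in nonfluorescent compounds, cut at about 42% in these data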;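 note: stock transfer was 100 nL into about 11 µL; a reference agonist was the positive control; negative values mostly stem from fluorescent compounds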
Target sequence (P07550 whole entry, looked up): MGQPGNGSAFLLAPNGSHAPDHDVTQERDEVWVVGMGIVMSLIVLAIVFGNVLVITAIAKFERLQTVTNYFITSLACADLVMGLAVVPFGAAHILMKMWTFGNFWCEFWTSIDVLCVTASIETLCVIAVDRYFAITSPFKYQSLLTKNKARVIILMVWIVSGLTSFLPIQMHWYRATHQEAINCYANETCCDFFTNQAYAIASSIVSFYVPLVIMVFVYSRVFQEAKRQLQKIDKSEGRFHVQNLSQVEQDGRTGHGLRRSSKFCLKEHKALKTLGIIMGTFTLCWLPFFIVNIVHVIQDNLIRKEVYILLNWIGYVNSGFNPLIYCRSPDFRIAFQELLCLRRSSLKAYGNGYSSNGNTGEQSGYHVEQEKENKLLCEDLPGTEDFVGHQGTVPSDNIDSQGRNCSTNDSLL
Ecoli rRNA inh OD600: also measured in Ecoli rRNA inh; calls as there; OD600 change, %; measured here: OD600 growth;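 optical density of the mix in the first replicate; 0 = DMSO median and -100 = no signal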
Ecoli rRNA inh RFP: further read-out of Ecoli rRNA inh, marked with its call; RFP signal change, %; measured here: RFP humanized mutant strains;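 first replicate; 0 = DMSO median and -100 = no signal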
Numbers without * were called inactive; · = no result given. An excerpt; rates above refer to the full screens.

SMILES | Beta apoptosis | Calb FLC | A1 inh | ALR inh | T cruzi inh | Ecoli rRNA inh | Ecoli rRNA inh OD600 | Ecoli rRNA inh RFP | LANA-H2B inh | Beta2AR agonist
COc1cc(CCC(=O)Oc2ccc(C(C)=O)cc2)cc(OC)c1OC | -9 | 10 | -0.1 | · | -37 | -4 | -20 | 0.2 | · | 4
Clc1ccc2c(c1)c1ccccc1n2CN1CCOCC1 | 1 | · | 0.8 | -23 | 3 | -33* | -24* | -5.9* | 1.8 | -3
COc1cc2ccccc2cc1C(=O)Nc1cc(C)ccn1 | · | -8 | 0.6 | 2 | 7 | 1 | -1 | -0.9 | -6.5 | 12
Fc1ccccc1N1CCN(CC2CCCCC2)CC1 | 1 | -11 | 1.7 | · | 12 | -3 | -1 | -0.4 | 1.2 | -13
COc1ccc(S(=O)(=O)N2CCN(c3ncccn3)CC2)cc1[N+](=O)[O-] | -5 | 9 | -1.6 | -3 | -10 | 2 | -5 | -10 | -4.4 | -9
CCc1cc2ccc(C)cc2nc1SCC(=O)Nc1cc(OC)c(OC)cc1C(=O)O | -7 | -1 | 0.9 | 53 | -6 | · | · | · | 0.5 | 6
COc1cc(NC(=O)CN2C(=O)C(c3ccccc3)=NC23CCCCCC3)cc(OC)c1 | · | 13 | 0.4 | 55 | 21 | · | · | · | -4.7 | 6
CC(C)c1ccc(C2=C(O)c3ccccc3C(=O)C2=O)cc1 | -6 | 99* | -0.8 | 55 | 5 | · | · | · | -5.1 | -1
CCc1ccc(CN2CCC(C(=O)Nc3ccc(-n4nc(C)cc4C)cc3)CC2)o1 | -1 | -12 | -0.9 | -1 | 2 | -2 | 0 | 1.6 | -1.3 | -7
O=C(O)CSc1ccccc1C(=O)O | -1 | 19 | 0.1 | · | 0 | · | · | · | 4.2 | -6
C=CCNC(=O)CNS(=O)(=O)c1ccc(F)cc1 | -1 | -3 | -0.3 | -1 | -5 | · | · | · | 1.6 | 0
COc1ccc(OC)c(NC(=O)COC(=O)CCS(=O)(=O)c2ccc(Cl)cc2)c1 | -12 | · | 0.7 | 5 | · | 5 | 1 | 0.5 | 5.7 | 2
Cc1ncsc1C(=O)O | 0 | -29 | -0.4 | -4 | -12 | 2 | 7 | 2.1 | 0.2 | -9
COCc1cc(C)nc(SCC[N+](C)(C)CC(=O)Nc2ccccc2)c1C#N | -8 | -20 | 0.9 | -1 | -8 | 4 | -2 | 0.4 | -0.2 | -6
CC1CCN(c2nc3nonc3nc2N2CCC(C)CC2)CC1 | 7 | 1 | -0.3 | -3 | 27 | · | · | · | 2.4 | -1
CC(C)(C)c1ccc(-c2n[nH]c(=S)n2-c2ccccc2)cc1 | 9 | 3 | 1.1 | · | -4 | -3 | -2 | -1.4 | -1.5 | 9
O=C1NC[C@@H](Cc2cccc3ccccc23)N(CC2(c3ccccc3)CC2)C1=O | -22 | -1 | 0.3 | -21 | 17 | -52 | -82 | -18 | 3.5 | 1
Cc1nnc(SCC(=O)N2CCN(S(=O)(=O)c3ccccc3)CC2)s1 | -5 | 5 | 0.3 | -6 | -8 | 9 | 8 | -1.6 | 1.0 | 5
CCOC(=O)N1CCN(C(=O)/C(=C\c2cccs2)NC(=O)c2cccs2)CC1 | -3 | 5 | 0.4 | 1 | -8 | 8 | 14 | -1.4 | 2.4 | 7
CCN(Cc1ccccc1)C(=O)c1oc2ccc(C)cc2c1C | · | -8 | 0.7 | 2 | -11 | -21 | -33 | -4.4 | 2.9 | 16
Cc1cccc(Cn2c(N3CCN(C)CC3)nc3c2c(=O)n(C)c(=O)n3C)c1 | · | -8 | 1.1 | -6 | -11 | 10 | 6 | -0.3 | -3.3 | 4
CN(CCN1CCOCC1)Cc1nc(-c2ccccc2)no1 | 7 | 0 | -0.4 | · | 8 | 11 | 1 | 0.5 | -3.6 | -7
Cc1cc(=O)c(C(=O)OC(C)C(=O)NC(N)=O)nn1-c1ccc(Cl)cc1 (configuration not stated) | -1 | 7 | 0.0 | -2 | -5 | 1 | -2 | -0.5 | -7.5 | -1
CCOC(=O)c1ccoc1CN1CCN(S(=O)(=O)c2ccc(C)c(C)c2)CC1 | 1 | · | 1.4 | -7 | · | -20* | -15* | 1.9* | 0.1 | 5
CCOC(=O)N1CCC(N(CCN(C)C)C(=S)Nc2ccccc2Cl)CC1 | -7 | 4 | -0.1 | -4 | 3 | 2 | 7 | 6.0 | -0.9 | -3
Cc1ccc(-c2cn3cccnc3n2)cc1NC(=O)c1cccs1 | 5 | 1 | 0.2 | -7 | -7 | · | · | · | 5.4 | -7
O=C(Cc1ccc([N+](=O)[O-])cc1)Nc1ccc2c(c1)CCC2 | -6 | 4 | 0.8 | -1 | 20 | -1 | -2 | 5.7 | -0.2 | -6
Cc1ccnc(NC(=O)CCC(=O)N(Cc2ccco2)C(C(=O)NC(C)C)c2ccc(F)cc2)c1 (configuration not stated) | 1 | 26 | -0.7 | 3 | 7 | 0 | -7 | -0.9 | -0.5 | -1
O=C(CCn1c(=O)oc2ccccc21)NCCCN1CCOCC1 | 3 | -5 | 0.0 | · | -9 | 9 | 1 | -1.1 | 2.5 | -3
COc1ccc(N(C(=O)Cn2nnc3ccccc32)C(C(=O)NCc2ccco2)c2ccc(C)o2)cc1 (configuration not stated) | 0 | 21 | 0.0 | -4 | 2 | · | · | · | 4.1 | -4
CCc1noc(C)c1C(=O)Nc1nc(-c2ccc(NC(C)=O)cc2)cs1 | 4 | · | 0.7 | -17 | -9 | -24 | -25 | -5.0 | -3.0 | 17
COc1ccccc1NC(=O)N1CCC(c2nnc(SCC(N)=O)n2C)CC1 | 2 | -10 | 0.7 | -9 | 11 | · | · | · | -3.9 | 6
CCCS(=O)(=O)N1CCC(C(=O)NCCCN(CC)c2cccc(C)c2)CC1 | 1 | · | 0.9 | 16 | · | · | · | · | 2.5 | -2
COc1ccc(-n2cnnc2SCc2ncc(-c3ccccc3)o2)cc1 | · | 10 | -0.2 | -2 | 21 | · | · | · | 1.6 | -7
CCOc1ccc(Cc2nnc(N)s2)cc1OCC | 1 | 1 | 1.0 | -11 | -6 | · | · | · | 0.5 | 2
Cn1c(C(=O)NCc2cccs2)cc2c(=O)n(C)c3ccccc3c21 | 0 | 6 | -0.7 | -13 | 14 | -1 | 0 | 3.4 | -3.3 | 7
COc1ccc(-c2c(NC(=O)c3ccco3)oc3c(C)cccc3c2=O)cc1 | -4 | 0 | 0.4 | 0 | 3 | -4 | -2 | -2.6 | 3.0 | -2
COc1cccc(CNC(=O)Cn2c(=O)n(CCC(=O)N3CCCCC3)c(=O)c3sccc32)c1 | 6 | -1 | 0.7 | -15 | 11 | 5 | 7 | 0.3 | -3.3 | 1
CCOc1ccccc1NC(=O)COC(=O)CN1C(=O)NC(C)(C)C1=O | -1 | · | 1.5 | -1 | · | 3 | 11 | -0.6 | 9.3 | -5
Cc1c(Cl)ccc2c(C(=O)NCCN3CCCCC3)cc(-c3ccccn3)nc12 | 11 | 14 | 0.1 | -3 | -7 | -23 | -19 | 19 | 3.6 | 23
CC(=O)c1ccc(N2CCN(S(=O)(=O)c3ccccc3)CC2)c(F)c1 | 1 | 41 | 0.7 | -4 | -8 | 18 | 23 | 0.7 | 3.4 | 8
O=S(=O)(c1ccc(Cl)cc1)N1CCN(c2nc(-c3cccs3)nc3ccccc23)CC1 | · | 36 | · | · | 38 | 21 | 11 | -2.2 | · | -24
CN(C)C=NC(=O)c1ccc(N2CCN(c3ncc(C(F)(F)F)cc3Cl)CC2)cc1 | -18 | 7 | 0.1 | -1 | 5 | · | · | · | 9.2 | -1
Cc1ccc(NC(=O)c2nn(C34CC5CC(CC(C5)C3)C4)cc2[N+](=O)[O-])cc1 | 2 | -23 | 0.0 | 4 | 37 | · | · | · | -0.2 | -9
COc1ccccc1N1CC(C(=O)Nc2ccc(S(=O)(=O)N3CCOCC3)cc2)CC1=O (configuration not stated) | · | -4 | 1.0 | 6 | 10 | · | · | · | 2.2 | -3
CCOc1ccc(C2/C(=C(\O)c3ccc4c(c3)OCCO4)C(=O)C(=O)N2Cc2cccnc2)cc1OCC (configuration not stated) | -7 | 4 | 1.7 | -36 | 3 | 5 | 7 | -0.7 | -0.9 | 5
Cc1onc(-c2ccccc2)c1C(=O)Nc1ccc(Cl)c(S(=O)(=O)N2CCOCC2)c1 | 3 | · | 1.0 | · | · | 5 | -15 | 2.9 | 0.1 | -8
Cc1cc(NC(=O)c2cc(S(=O)(=O)N3CCCCC3)ccc2C)n(-c2ccccn2)n1 | -5 | · | 0.1 | -4 | · | · | · | · | -3.0 | 0
CCC(c1nnc(SCC(=O)N(C)c2ccccc2)n1Cc1ccccc1)N(C)C (configuration not stated) | 1 | -13 | 0.5 | 7 | 5 | 12 | 14 | 1.3 | 2.4 | 3
O=C(NCCc1ccccc1)c1ccccc1Cl | 0 | 4 | -5.5 | -17 | -9 | 9 | 12 | 1.5 | 0.9 | 7
COc1ccc(CN(C#N)c2nc(SC)nc(N(C)C)n2)cc1 | 3 | -3 | -0.5 | -8 | · | · | · | · | 0.0 | -22
Cc1cc(C(=O)Nc2ccccc2[N+](=O)[O-])cs1 | 1 | 8 | -7.2 | -11 | -8 | 4 | 8 | -1.7 | 6.0 | 1
Cc1ccccc1OCC(=O)NCCC1=CCCCC1 | -3 | -1 | -0.6 | -7 | 9 | · | · | · | -2.7 | 5
Cc1n[nH]c(=S)n(/N=C/c2ccccn2)c1=O | -10 | 3 | -0.7 | 17 | -28 | · | · | · | 4.4 | -2
COC(=O)c1ccc(CN2CCc3ccc(NC(=O)c4ccncc4)cc3C2)cc1 | -1 | 1 | 0.3 | -7 | 48 | -1 | 1 | 3.0 | 0.1 | 4
CCOC(=O)N1CCC(N2Cc3cccc(C(=O)N4CCN(C5CCCCC5)CC4)c3C2=O)CC1 | -4 | -2 | -0.1 | 4 | -15 | 14 | 12 | 4.9 | 0.5 | -6
Cc1cc(C)n(CC(O)Cn2c3ccccc3c3ccccc32)n1 (configuration not stated) | 3 | 11 | 0.5 | · | 13 | · | · | · | 1.3 | 4
CC(C)NC(=O)CN1CCN(C(=O)CCl)CC1 | 0 | -18 | -0.1 | -1 | 10 | 3 | 0 | -7.5 | -3.5 | -14
Cc1cc2oc3ccc(NCCCN4CCOCC4)cc3c(=O)c2cc1C | -7 | -9 | -0.6 | -6 | -6 | 9 | 8 | -1.1 | -0.5 | 5
CCOC(=O)C1C(c2ccc(O)c(OCC)c2)NC(=S)NC1(O)C(F)(F)F (configuration not stated) | -2 | 7 | 0.1 | 33 | 3 | · | · | · | -5.4 | 4
